PABP polyA inh = PABP poly(A) RNA binding inhibitors, primary screen, biochemical, fluorescence polarization, uHTS; Polyadenylate-binding protein 1 (Homo sapiens), P11940; inhibition, % at 35 µM; actives 1% (n = 290,000);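 active = 50% or more with normal probe brightness, or confirmed in later tests; inconclusive = above 50% with abnormal brightness, or retests that disagree; inactive = below 50% or failed in later tests; about a fifth of its hits are not listed in these tables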;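 note: calls also rest on retests at 20 µM and on dose response follow-up; controls were probe without protein and protein plus probe with vehicle; some compounds called inactive have numbers as strong as hits; many hits fall short of the cut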
eIF4H FP inh = human eIF4H binding inhibitors, primary screen, translation initiation inhibitor project, biochemical, uHTS, fluorescence polarization. Eukaryotic translation initiation factor 4H (Homo sapiens), Q15056. eIF4H fluorescence polarization binding assay. inhibition, % at 35 µM. actives 0.94% (n = 290,000). AID 2012, 2009;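 active = 50% or more with normal probe brightness, or confirmed in later tests; inconclusive = above 50% with abnormal brightness, or retests that disagree; inactive = below 50% or failed in later tests; about a fifth of its hits are not listed in these tables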;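 note: calls also rest on retests at 20 µM and on dose response follow-up; 0% = protein and probe with vehicle and 100% = probe without protein; strong numbers were not always called active; many hits fall short of the cut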
CSC inhib = cancer stem cell viability inhibitors, primary screen, luminescence; cancer stem cell-like cells viability; inhibition, % at 7.5 µM; actives 1.1% (n = 300,000);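 active = mean at 75% or more and at least half the replicates too; inconclusive = mean and replicates disagree; tested in HMLE shEcad cells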;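 note: 0% = median of negative and 100% = median of positive control wells; the first replicate is given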
MT1-MMP act inh = blockers of MT1-MMP proenzyme processing, primary screen, HT1080 RFP-PRO-GFP cells, GFP/RFP fluorescence | Matrix metalloproteinase-14 (Homo sapiens), P50281 | GFP/RFP ratio fluorescence, overnight; percent of plate control window, DMSO zero | GFP/RFP ratio change, % at 20 µM | actives 0.061% (n = 360,000);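 active = GFP/RFP ratio change of at least 30% with cell ATP level not reduced by more than half and red fluorescence within 50% of control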; note: strong numbers were not always called active
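Material – HT1080 RFP-PRO-GFP cells · Control set – DMSO wells and RFP-L50D-GFP cells · Incubation – overnight cell settling, then overnight compound exposure, 37 °C, 5% CO2 · Compound dosing – single-point 20 µM compound, 1% DMSO · Read-out – GFP/RFP fluorescence ratio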
UUG fidelity = modulators of yeast start codon fidelity, primary screen, whole organism, S. cerevisiae, single point, plate reader | S. cerevisiae UUG-firefly luciferase reporter, luminescence/redox ratio | activity score, % at 18.7 µM | actives 0.13% (n = 350,000) | AID 602363, 2012;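 active = replicate mean at a twofold rise or more, about +100% in these data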;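 note: firefly luciferase made from a UUG start codon reports start codon fidelity; reporter light over untreated wells divided by growth signal over untreated wells; some hits fall short of that in this replicate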
HIV Env fusion = inhibitors of HIV-1 Env-driven cell-cell fusion, primary screen, HeLa-JRFL effector, CEM21 target cells, luciferase; actives 1.1% (n = 360,000); AID 651610, 2012; inhibition, % at 12.3 µM;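 active = mean replicate inhibition score of at least 50 and every replicate individually at or above 50; inconclusive = only one of the two criteria met; inactive = mean below 50 and not all replicates reaching 50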;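 note: 0% = plate neutral controls and 100% = maraviroc near 300 nM; one replicate is shown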
Rce1 inh = yeast Rce1p protease inhibitors, primary screen, biochemical, fluorescence, cell-free homogeneous; CAAX prenyl protease 2 (Saccharomyces cerevisiae (strain ATCC 204508 / S288c)), Q03530; yeast membranes, quenched prenylated peptide cleavage fluorescence; calls only; actives 0.27% (n = 290,000); AID 2563, 2010;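 active = fall in fluorescence gain of 50% or more versus controls, with final raw signal at or below 3038400; inconclusive = same 50% fall but final raw signal above 3038400; inactive = fall in fluorescence gain under 50%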;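 note: plate controls were neutral control wells for no effect and wells lacking membranes for full effect; tested at 10 µM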
Target sequence (Q03530 whole entry, looked up): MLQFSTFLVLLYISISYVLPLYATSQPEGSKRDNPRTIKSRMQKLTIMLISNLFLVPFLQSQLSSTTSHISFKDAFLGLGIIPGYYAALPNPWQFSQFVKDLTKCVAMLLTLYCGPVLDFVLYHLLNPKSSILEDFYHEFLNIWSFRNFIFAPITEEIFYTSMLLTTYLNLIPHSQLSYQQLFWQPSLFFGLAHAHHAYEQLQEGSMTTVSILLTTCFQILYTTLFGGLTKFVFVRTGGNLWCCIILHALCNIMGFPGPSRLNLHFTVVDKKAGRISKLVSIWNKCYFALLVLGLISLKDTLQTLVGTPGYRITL
eIF4H FP inh retest = second read-out of eIF4H FP inh, no call of its own (marks repeat the call); inhibition, %; compound at 20 µM; confirmation average;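 mean of two retest wells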
PABP polyA inh retest = also measured in PABP polyA inh; calls as there; inhibition, %; compound at 20 µM; confirmation repeats;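 mean of two retest wells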
MT1-MMP act inh RFP = also measured in MT1-MMP act inh; calls as there; RFP signal change, %; measured here: RFP expression control read;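 0 = vehicle wells; hits needed this value within 50% of zero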
Numbers without * were called inactive; i = inactive; ? = inconclusive; . = no result given; + = active, no number.

SMILES | PABP polyA inh | eIF4H FP inh | CSC inhib | MT1-MMP act inh | MT1-MMP act inh RFP | UUG fidelity | HIV Env fusion | Rce1 inh | others
Cc1nc(N2CCOCC2)c2cc(-c3ccccc3)sc2n1 | -7 | 1 | 8 | 3 | 4 | -20 | . | +
O=C(NC(=S)Nc1ccc(N2CCCCC2)c(Cl)c1)c1cccs1 | . | . | 81* | 3 | -5 | -10 | . | i
O=C(NCc1ccccc1)NC1CCS(=O)(=O)C1 (configuration not stated) | -2 | 1 | -7 | -3 | 3 | . | -2 | i
C=CCSc1nnc2n(-c3ccccc3OC)c(=O)c3c4c(sc3n12)CCC4 | -1 | -1 | -6 | . | . | . | . | i
O=C(N/N=C/c1coc2ccccc2c1=O)c1ccccc1Br | 0 | -1 | 4 | -10 | -7 | -10 | . | i
COc1ccc(OC)c(/C=N/n2c(C)nc3ccccc3c2=O)c1 | . | . | -7 | -1 | 3 | -13 | 16 | i
O=C(c1ccc(Cl)c([N+](=O)[O-])c1)N(c1ccccn1)c1ccccn1 | -12 | -3 | 4 | 6 | 3 | -3 | . | i
Cc1cnc(NC(=O)CSc2nnc3ncccn23)s1 | 1 | 3 | 12 | -1 | 2 | 0 | 2 | i
COc1ccc(-c2csc(NC(=O)C3CCCCN3S(=O)(=O)c3ccccc3)n2)cc1 (configuration not stated) | 7 | 3 | -12 | -8 | -30 | -5 | . | i
COCCCN1C(=O)N(c2ccc(F)cc2)C(=O)C1CC(=O)Nc1ccccc1 (configuration not stated) | 10 | 0 | -12 | -1 | -1 | 1 | -15 | i
CCOC(=O)C1(C)C(C(=O)OC)=C(c2ccc(OC)cc2)c2ccccc2N1C(=O)OC (configuration not stated) | . | . | . | -2 | 0 | 7 | 1 | .
O=C(COC(=O)Cc1ccccc1F)Nc1ccc(F)cc1F | 10 | -6 | -10 | 0 | 6 | . | 2 | i
Cc1ccc(NC(=O)CSc2nc3ccccc3c3nc(CCn4cncc4C)nn23)c(C)c1 | -1 | -6 | 7 | 0 | 1 | -8 | . | i
O=C(c1ccc(=O)oc1)N1CCN(c2ccc(F)cc2)CC1 | 15 | 10 | -17 | 4 | 1 | -1 | -14 | i
CCN(CC)c1ccc(-c2nc3cnccc3n2C)cc1 | -8 | 4 | 54 | 6 | -2 | -19 | . | i
C=CCN(c1ccccc1OC)S(=O)(=O)c1cccc(C(=O)Nc2nnc(C3CC3)s2)c1 | . | . | -2 | 2 | 0 | -6 | . | .
O=S(=O)(c1ccc(F)cc1)c1nc(-c2ccc(F)cc2)oc1NCCN1CCOCC1 | 0 | 1 | . | -1 | 0 | 2 | . | i
Cc1nc(SCc2nc3ccccc3[nH]2)c2oc3cc([N+](=O)[O-])ccc3c2n1 | . | . | . | 1 | -3 | -22 | -7 | .
O=C(COc1ccccc1)Nc1cccc(-c2nc3cc4ccccc4cc3[nH]2)c1 | 1 | -3 | 88* | 6 | -9 | -22 | i | +
CC1CCCC(C)N1C(=O)CSc1nnnn1C1CCCC1 (configuration not stated) | -2 | -3 | . | 0 | 2 | -13 | 5 | i
Cc1ccc(S(=O)(=O)N(C)CC(=O)N2CCN(C(=O)c3ccco3)CC2)cc1 | 2 | -2 | -3 | 1 | -1 | -19 | . | i
CC(C)NC(=O)c1cc(-c2ccco2)nn1-c1ccc(Cl)cc1 | 11 | 42 | -6 | -4 | 5 | 0 | -29 | i
CCOC(=O)Cn1nc(C)cc1NC(=O)c1cccnc1 | -10 | 10 | -6 | -7 | 0 | -25 | -6 | i
CC1CCc2cc(F)ccc2N1C(=O)CCl (configuration not stated) | -11 | 2 | . | 0 | 2 | . | . | .
CCOc1ccc(CNC(=O)C2CCN(C(=O)N3CC(C)Oc4ccccc43)CC2)cc1 (configuration not stated) | 16 | -2 | -14 | 1 | -3 | -10 | . | i

The list continues.
SMILES | PABP polyA inh | eIF4H FP inh | CSC inhib | MT1-MMP act inh | MT1-MMP act inh RFP | UUG fidelity | HIV Env fusion | Rce1 inh | others
COCCn1c(=O)[nH]c2cc(C(=O)NCCN3CCN(c4ccccc4)CC3)ccc2c1=O | -8 | -7 | . | -1 | 1 | -20 | -54 | i
CNc1nc2[nH]c(=O)c3c(c2s1)OC(N)=C(C#N)C3c1ccccc1 (configuration not stated) | -2 | ? | -17 | 0 | 5 | 0 | -59 | i
O=C1CN(S(=O)(=O)c2cccc(Cl)c2Cl)c2ccccc2N1 | -4 | -3 | . | -4 | 3 | -13 | -4 | i
Cn1cnnc1-c1cccc(NC(=O)c2cc(F)c(F)cc2Cl)c1 | -4 | 2 | -14 | 1 | 1 | -12 | 8 | i
COc1ccc(CNC(=S)Nc2ccccc2)cc1 | 1 | -8 | -7 | 1 | -1 | 3 | 0 | i
CCOc1ccc(Nc2nc(Cc3nnc(SCC(=O)NC4CCCCC4)n3C)cs2)cc1 | -23 | -4 | -20 | 7 | -1 | -24 | . | i
CC(=O)Nc1ccc(SCC(=O)Nc2cc(C)on2)cc1 | 7 | -13 | -7 | 4 | 2 | . | -5 | i
COC(=O)c1c([N+](=O)[O-])c(OC)c(OC)c(OC)c1[N+](=O)[O-] | -9 | -9 | -2 | 0 | -1 | -17 | -15 | .
CN(C)C1=NCCN1CCCCc1ccccc1 | . | . | -3 | 3 | 0 | -17 | 11 | .
Cc1ccc(OCC(=O)N(c2ccccn2)C2CCCCC2)c(C)c1 | -2 | 1 | 16 | -2 | -6 | . | 7 | i
Cc1ccc(Cl)cc1N1CCN(Cc2nnnn2Cc2ccco2)CC1 | 10 | 2 | 18 | -21 | -13 | -7 | . | i
Cc1onc(-c2ccccc2)c1C(=O)Nc1nnc(CC(C)(C)C)s1 | 2 | -6 | -30 | 1 | 3 | -1 | 11 | i
CCOC(=O)N1CCN(C(=S)NC(=O)c2c(-c3c(Cl)cccc3Cl)noc2C)CC1 | -1 | -6 | 12 | 4 | 4 | . | -17 | i
COc1ccc(Cl)cc1C(=O)NCCCn1ccnc1 | -8 | -6 | -4 | 5 | 4 | -2 | 6 | i
O=C(c1cnn2c(C(F)(F)F)cc(-c3cccs3)nc12)N1CCCC1 | 10 | -8 | 8 | -9 | -1 | . | 22 | i
CCOC(=O)[C@H]1[C@H]2COc3cc(OC)ccc3[C@@H]2N2C(=O)c3cc(F)c(F)cc3NC(=O)[C@@]12C | . | . | 13 | -11 | -3 | 2 | -370 | .
CC[C@]12c3[nH]c4ccc(OC)cc4c3CCN1C(=O)C(CC(=O)NCCc1ccccn1)C[C@@H]2C(=O)N1CCN(C(=O)C2CC2)CC1 (some centres not stated) | . | . | . | 2 | 8 | 2 | -5 | .
O=C(CN1N=C(c2ccccc2)CCC1=O)NCCN1CCc2ccccc2C1 | 2 | -4 | -2 | -2 | -4 | -5 | 18 | i
Cc1ccc2c(c1)N(CCC(=O)NCc1ccco1)C(=O)CO2 | -8 | -7 | 9 | 6 | -3 | -11 | -58 | i
O=C(CCc1nc(-c2ccccc2F)no1)NCCN1CCOCC1 | -5 | -8 | 0 | 1 | 1 | -11 | . | i
c1ccc2[nH]c(CCCCCc3nc4ccccc4[nH]3)nc2c1 | . | . | . | 5 | 10 | -18 | 7 | .
Oc1ccc(Nc2nc3ccccc3nc2Nc2ccc(O)cc2)cc1 | 42 | 39 | 78* | -14 | -4 | -32 | . | i
CC(=O)c1c(C)cc(C)c(CSc2nnc(-c3ccco3)o2)c1C | -3 | -1 | -6 | 7 | -2 | 8 | 33 | i
Cc1ccc(C2CC(=O)C(C=NCCN3CCN(C(=S)Nc4ccc(F)cc4)CC3)=C(O)C2)cc1 (configuration not stated) | -2 | -1 | 11 | -4 | -5 | . | 4 | i
O=C(COC(=O)c1ccc(S(=O)(=O)N2CCOCC2)cc1)Nc1ccccc1F | . | . | . | -3 | 1 | -9 | -10 | .

Additional records.
SMILES | PABP polyA inh | eIF4H FP inh | CSC inhib | MT1-MMP act inh | MT1-MMP act inh RFP | UUG fidelity | HIV Env fusion | Rce1 inh | others
Cc1cc(C)n(Cc2ccc(C(=O)NCc3ccco3)o2)n1 | 7 | 80 | 12 | 1 | 0 | -18 | . | i | eIF4H FP inh retest=4;PABP polyA inh retest=1
Cc1cc(C)n(Cc2ccc(C(=O)O)o2)n1 | 6 | -4 | 2 | 3 | 6 | -14 | . | i
CCc1ccc(/C=C2\Oc3cc(OS(C)(=O)=O)ccc3C2=O)cc1 | -3 | -4 | -5 | 3 | -3 | . | -1 | i
CCC(C(=O)OCn1nnc2ccccc2c1=O)c1ccccc1 (configuration not stated) | -8 | 0 | 0 | 0 | -3 | . | 20 | i
CCCS(=O)(=O)c1c(S(=O)(=O)CCC)c2ccc(C(N)=O)cn2c1C(=O)c1ccccc1 | 6 | 12 | -3 | -3 | -1 | 0 | -3 | i
C=CCc1c(C)nc(SC(C)C)[nH]c1=O | -2 | -4 | 7 | 2 | 2 | -7 | -5 | i
O=C(NCCCN1CCCCC1)C1CC(=O)N(CCc2ccccc2)C1 (configuration not stated) | . | . | -3 | 0 | 1 | -20 | 0 | i
COc1ccc(CNS(=O)(=O)c2csc(C(N)=O)c2)cc1OC | 6 | -14 | 2 | -2 | 3 | -10 | 8 | i
COCCNC(=O)C(c1ccc(F)cc1)N(C(=O)CCC(=O)Nc1ccccn1)c1ccc(C)cc1 (configuration not stated) | 6 | 8 | -2 | -4 | -1 | 14 | 19 | i
NC(=O)NN=C(C1CC1)C1CC1 | . | . | . | 4 | 2 | -16 | 6 | .
Cc1ccc(-c2c[n+](CC(=O)c3cccs3)c3n2CCC3)cc1 | 1 | 0 | -2 | -7 | -22 | . | -12 | i
CC(C)Cc1nnc(NC(=O)C2CCCC2)s1 | 12 | -11 | -7 | 10 | 4 | 1 | -3 | i
CCN(CC(=O)NCC1CCCO1)S(=O)(=O)c1ccc(Cl)cc1 (configuration not stated) | -2 | -4 | -9 | -1 | -1 | -13 | 11 | i
COc1ccc(C(C)=NNC(=O)c2cccc(S(=O)(=O)N3CCCC3)c2)cc1 | . | . | -7 | 1 | 0 | -12 | 13 | .
Cc1ccc(NC(=O)c2ccc(F)cc2)nc1 | -9 | 2 | -5 | 4 | 3 | . | -51 | i
COCCNc1cc(C)nc2c3c(C)cc(C)nc3nn12 | 6 | -7 | 10 | 8 | 2 | 13 | -54 | ?
CCOc1ccccc1C(=O)NCCCCNC(=O)c1ccccc1OCC | . | . | . | 3 | 0 | -8 | 20 | i
CN(CCCn1ccc(NC(=O)OCc2ccccc2)nc1=O)Cc1ccco1 | . | . | . | 4 | 5 | -7 | -14 | .
COc1ccc(C(CNS(=O)(=O)c2cccc(F)c2)N2CCCC2)cc1 (configuration not stated) | . | . | 1 | 1 | 2 | -7 | 13 | .
C=CCn1c(=O)c(C(=O)Nc2ccccc2C)c(O)c2ccccc21 | 3 | -8 | . | -5 | 1 | 8 | -46 | i
Cc1ccc(CNC(=O)CSc2nc(=O)n3ccccc3n2)cc1 | . | . | -13 | -4 | 2 | 7 | . | i
Clc1ccc(CON/C=N/c2ncnc3sccc23)c(Cl)c1 | 1 | 5 | 8 | -9 | -25 | -16 | . | i
